Assay outcomes: PubChem, Broad Institute
rRNA inh HTS: selective bacterial rRNA inhibition in E. coli | E. coli WT GFP vs humanized-ribosome RFP mutants, fluorescence, 24 h; hits give low values; DMSO median 0, no signal -100 | GFP signal change (wild-type ribosome), % (concentration not given with the values) | 350,000 tested, 1.6% active | AID 720706;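 active means significant combined selectivity score with lowered wild-type GFP, culture density cut under 30%, mutant RFP and density less affected; inactive means any of these conditions unmet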; further: one replicate is shown; some compounds called inactive have numbers as strong as hits
FGF22 binding: FGF22 (human) thermal shift binding | Q9HCT0 | recombinant FGF22 thermal shift, SYPRO orange fluorescence; percent of sucrose octasulfate shift, DMSO zero | calls only at 9.99 µM | 340,000 tested, 1.5% active | AID 651658;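 active means melting point raised past a set limit in the mean and every replicate; inconclusive means no clear call; three in four hits are not shown here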
Target sequence (Q9HCT0 whole entry, looked up): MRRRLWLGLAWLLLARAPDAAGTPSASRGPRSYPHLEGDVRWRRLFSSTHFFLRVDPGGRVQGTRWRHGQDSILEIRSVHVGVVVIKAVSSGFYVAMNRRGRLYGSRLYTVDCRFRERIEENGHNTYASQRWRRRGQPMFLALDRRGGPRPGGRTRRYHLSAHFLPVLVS
ALR H2O2 inh: blocks human ALR sulfhydryl oxidase activity; purified ALR, DTT oxidation, H2O2 HRP-luminol luminescence; inhibition, % (no concentration beside the values); 290,000 tested, 3.8% active; AID 485317;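 active means mean and each replicate at 75% or more; inconclusive means only one of the two met; inactive means neither met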;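 further: stock transfer was 7.5 nL into about 7.5 µL; 0% = neutral wells and 100% = wells with inactivated enzyme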
Target sequence (P55789 whole entry, looked up): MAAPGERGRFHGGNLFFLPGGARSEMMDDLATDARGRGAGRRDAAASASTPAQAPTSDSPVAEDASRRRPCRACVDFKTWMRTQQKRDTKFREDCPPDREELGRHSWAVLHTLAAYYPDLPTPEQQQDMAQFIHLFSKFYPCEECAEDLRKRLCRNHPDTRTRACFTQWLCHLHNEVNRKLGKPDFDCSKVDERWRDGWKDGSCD
Calb FLC: C. albicans growth modulation with fluconazole; growth inhibition, % (concentration not given with the values); 300,000 tested, 0.57% active; C. albicans CaCi-2 (fluconazole-resistant clinical isolate) + fluconazole, Alamar Blue growth, 48 h;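 active means most replicates above 75%; inconclusive means exactly half above 75%; inactive means most below 75%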;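 further: all wells also contain fluconazole at 8 µg/ml as a sub-toxic cotreatment; 0% = median of DMSO wells and 100% = median of geldanamycin control wells; wells of about 8 µL received 7.5 nL stock; the first replicate is given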
RanGTP-Impb inh: inhibitors of RanGTP-importin-beta interaction, primary screen, biochemical, FRET, CFP-Ran, YFP-importin-beta, homogeneous | 300,000 tested, 1.1% active | AID 2216 | inhibition, % (no concentration beside the values) | cell-free CFP-Ran/YFP-importin-beta FRET ratio;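 active means most replicates above 15%; inconclusive means exactly half above 15%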;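 further: 0% = DMSO wells and 100% = Ran loaded with GDP instead of GTP; wells of about 40 µL received 100 nL stock; the first replicate is given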
Beta cell apopt: beta cell apoptosis inhibition | INS-1E cytokine-induced death, ATP luminescence, 48 h; percent of positive-control rescue, neutral wells zero | protection from apoptosis, % (no concentration beside the values) | 300,000 tested, 0.8% active | AID 435005;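 active means all replicates at 75% or more, or half of them and the mean; inconclusive means half reach 75% but not the mean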;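 further: 0% = cytokine-treated negative control wells and 100% = positive control rescue; higher means more ATP so stronger rescue from cytokine killing; wells of about 40 µL received 100 nL stock; the first replicate is given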
T cruzi repl: blocks replication of Trypanosoma cruzi. T. cruzi beta-gal in NIH3T3, luminescence, 90 h. 300,000 tested, 1.4% active. inhibition, % (concentration not given with the values). AID 1885;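 active means mean inhibition across valid replicates above about 55%, limit read from the data; inconclusive means mean below that limit but half or more replicates reach it; inactive means mean below it, under half of replicates reach it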;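 further: signal also drops with host cell toxicity which is not excluded here; 0% = plate median of DMSO wells and 100% = zero luminescence signal; higher percent means less beta-gal luminescence so fewer parasites; stock transfer was 50 nL into about 50 µL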
MLL AF4-AF9 inh: MLL-AF4/AF9 protein interaction inhibition; inhibition, % at 10 µM; AlphaScreen, biotin-AF4 peptide binding to FLAG-AF9; 350,000 tested, 0.47% active; AID 651704;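 active means every replicate reaching a set inhibition limit, whatever the replicate mean, cut at about 25% in these data; inconclusive means mean inhibition reaches that limit but some replicates miss it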;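 further: 0% = plate neutral control median and 100% = total signal loss; the record names both 10 and 1 µM as test concentration; the first replicate is given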
Target sequence (P42568 whole entry, looked up): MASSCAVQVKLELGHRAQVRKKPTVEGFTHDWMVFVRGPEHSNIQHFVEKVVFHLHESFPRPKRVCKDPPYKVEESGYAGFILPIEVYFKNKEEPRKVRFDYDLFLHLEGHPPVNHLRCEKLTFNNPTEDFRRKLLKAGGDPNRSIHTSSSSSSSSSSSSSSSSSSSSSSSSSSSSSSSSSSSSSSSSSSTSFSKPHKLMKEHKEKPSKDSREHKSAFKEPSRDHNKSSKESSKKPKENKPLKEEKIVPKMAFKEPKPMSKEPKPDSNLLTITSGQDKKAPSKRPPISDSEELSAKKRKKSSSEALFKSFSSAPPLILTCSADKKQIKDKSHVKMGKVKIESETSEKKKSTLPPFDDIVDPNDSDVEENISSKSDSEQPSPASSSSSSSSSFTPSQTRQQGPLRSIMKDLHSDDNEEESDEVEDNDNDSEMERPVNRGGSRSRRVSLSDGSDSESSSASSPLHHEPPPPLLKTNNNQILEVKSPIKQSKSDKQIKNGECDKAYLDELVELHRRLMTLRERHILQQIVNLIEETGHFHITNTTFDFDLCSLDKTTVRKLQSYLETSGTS
rRNA inh HTS OD600: also measured in rRNA inh HTS; calls as there; OD600 change, %; measured here: OD600 growth;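 optical density of the mix in the first replicate; 0 = DMSO median and -100 = no signal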
rRNA inh HTS RFP: also measured in rRNA inh HTS; calls as there; RFP signal change, %; measured here: RFP humanized mutant strains;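 first replicate; 0 = DMSO median and -100 = no signal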
The depositor's hits bear a star; i = inactive; ? = inconclusive; · = no result given; & = joins results of further samples. Not all compounds are listed; count on the stated rates, not on these rows.

The line under a structure holds: Beta cell apopt	rRNA inh HTS	RanGTP-Impb inh	MLL AF4-AF9 inh	FGF22 binding	T cruzi repl	Calb FLC	rRNA inh HTS OD600	ALR H2O2 inh	rRNA inh HTS RFP
(1) COc1cc(OC)cc(C(=O)NC2CCCN(Cc3ccc(Cl)cc3)C2)c1 (stereo not given)
    ·	-14	1.1	-16	i	10	35	-13	·	3.6
(2) O=C(CN1CCN(c2ncccn2)CC1)N1CCCC1
    -7	16	-2.6	-0.8	i	3	18	3	-6	-3.3
(3) Cc1nc2nc(C)c(NS(=O)(=O)c3ccc(Cl)cc3)c(=O)n2[nH]1
    -6	0	1.6	-1.3	i	-11	1	6	15	-2.4
(4) CCC(C)c1ccccc1N1CC(C(=O)Nc2ccccc2N2CCCC2)CC1=O (stereo not given)
    3	0	-3.3	11	i	-7	-6	0	71	-0.6
(5) COc1cc(NC(=O)c2ccc3c(c2)OCO3)ccc1NC(=O)C(C)C
    4	·	?	·	·	-3	-6	·	19	·
(6) O=C1c2ccccc2C(=O)N1CN(C(=O)COc1ccc(Cl)cc1Cl)c1cccc(F)c1
    -2	·	-3.8	·	·	-1	4	·	-4	·
(7) COc1ccccc1N1CCN(CC(O)COc2ccc3c(c2)CCC3)CC1 (stereo not given)
    -5	·	0.6	·	·	7	2	·	0	·
(8) Cc1ccc(C(=O)Cn2nnc3ccccc32)cc1
    -4	·	2.1	·	·	-18	-4	·	0	·
(9) CN(CC(=O)NCc1cccs1)S(=O)(=O)c1cccc2nsnc12
    -2	·	0.6	·	·	0	-5	·	-11	·
(10) COc1ccc(CNC(=O)Cn2nc(C(F)(F)F)c3c2CCC3)cc1
    -1	·	-3.3	·	·	-2	-9	·	-7	·

The line under a structure holds: Beta cell apopt	rRNA inh HTS	RanGTP-Impb inh	MLL AF4-AF9 inh	FGF22 binding	T cruzi repl	Calb FLC	rRNA inh HTS OD600	ALR H2O2 inh	rRNA inh HTS RFP
(11) CN(C)CC(C)(C)CNS(=O)(=O)c1ccc(Cl)s1
    -5	25	4.0	-1.9	i	20	-8	13	-20	1.4
(12) CCSc1ncnc2c(C#N)c3n(c12)CCCCC3
    14	·	-0.9	·	·	-15	-4	·	-4	·
(13) NC(=S)N/N=C1\c2ccccc2-c2c(C(=O)O)cccc21
    -2	2	0.8	-10	i	-21	3	7	47	-1.3
(14) CC(C)C(=O)NNc1ccccc1
    -1	·	-1.8	·	·	6	5	·	42	·
(15) COc1cc(NS(=O)(=O)c2ccc(NC(=O)COc3ccc(C)cc3)cc2)nc(OC)n1
    1	·	-0.9	·	·	4	8	·	17	·
(16) COC(=O)C1=C(C)NC(=O)CC1c1cccc(OC)c1OC (stereo not given)
    0	14	0.7	6.1	i	-1	-3	9	0	-11
(17) COc1ccc(-n2nc(C(=O)NCC(=O)N3CCOCC3)c3ccccc3c2=O)cc1Cl
    -2	0	-0.7	-3.1	i	-1	-10	2	-1	-3.9
(18) Cc1c(C(=O)O)oc2ccc3c(c12)C(O)CC(C)(C)O3 (stereo not given)
    -3	0	1.0	-2.8	i	-11	6	1	-5	-0.1
(19) Cc1nc(-c2ccc(-n3nncc3-c3ccco3)cc2)cs1
    7	7	3.2	-56	i	6	-6	3	1	4.2
(20) CCOc1ccc(OCCCC(=O)NC2=NCCS2)cc1
    -4	·	0.3	·	·	-14	31	·	-4	·

The line under a structure holds: Beta cell apopt	rRNA inh HTS	RanGTP-Impb inh	MLL AF4-AF9 inh	FGF22 binding	T cruzi repl	Calb FLC	rRNA inh HTS OD600	ALR H2O2 inh	rRNA inh HTS RFP
(21) CCOC(=O)C(Oc1ccc(=O)n(-c2ccccc2)n1)C(C)=O (stereo not given)
    -3	·	-1.5	·	·	-13	-1	·	36	·
(22) CC1=CC(C)[C@@H]2COC(c3ccc(O)cc3)[C@H]1C2C (stereo not given in full)
    -3	-1	1.3	0.3	i	9	37	1	7	4.1
(23) O=c1c2ccccc2oc2nc3n(c(=O)c12)CCCS3
    -9	·	1.6	·	·	-15	-23	·	-5	·
(24) NC(=O)c1ccc(NC(=O)COc2cccc3c2CCNC3=O)cc1
    ·	10	2.4	2.1	i	-12	0	17	·	0.5
(25) COc1cc(SC)ccc1C(=O)Nc1cccc(S(=O)(=O)NC2=NCCCCC2)c1
    0	-9	0.3	-6.4	i	12	2	-10	-5	15
(26) Nc1c(C(=O)NCc2ccccc2)nnn1Cc1cccc(Cl)c1
    17	1	-1.9	-1.1	i	-33	4	-1	·	2.6
(27) O=[N+]([O-])c1ccc(O)c(Nc2ncnc3ccccc23)c1
    -3	11	-1.6	0.7	i	4	45	10	14	4.9
(28) N#C/C(=C\C=C\c1ccccc1[N+](=O)[O-])C(=O)NCc1ccccc1
    -28	-1	-1.7	4.7	i	-41	-9	5	·	13
(29) COc1ccc(OCC(O)Cn2c(N3CCCCC3)nc3c2c(=O)n(C)c(=O)n3C)cc1 (stereo not given)
    2	0	6.6	4.5	i	7	11	0	-12	1.6
(30) NS(=O)(=O)c1ccc(CCNC(=O)CSCC(=O)Nc2ccc(Cl)cc2)cc1
    -1	-4	·	?	i	·	·	-3	-1	-2.6

The line under a structure holds: Beta cell apopt	rRNA inh HTS	RanGTP-Impb inh	MLL AF4-AF9 inh	FGF22 binding	T cruzi repl	Calb FLC	rRNA inh HTS OD600	ALR H2O2 inh	rRNA inh HTS RFP
(31) CC(C)CC(NC(=O)OC(C)(C)C)C(=O)NC(C(=O)NC(C)C(N)=O)C(C)C (stereo not given)
    ·	·	-0.8	·	·	-8	-19	·	5	·
(32) CC(C)Cn1c(N)c(C(=O)COC(=O)Cc2cccs2)c(=O)n(C)c1=O
    4	·	0.0	-3.0	i	8	1	·	3	·
(33) C[C@H](CO)N1C[C@H](C)[C@H](CN(C)Cc2ccc(Oc3ccccc3)cc2)Oc2ccc(NC(=O)Nc3cccc4ccccc34)cc2CC1=O
    32	5&9	·	13	i	·	·	14&17	-2	-0.6&-0.5
(34) COCCCNC(=O)CN1CCN(Cc2ccc(Cl)cc2)C1=O
    ·	1	0.3	-1.6	i	-10	5	10	-6	-1.4
(35) CC1CCCCN1C(=O)/C(=C\c1ccccc1)c1ccccc1 (stereo not given)
    -13	·	-3.3	·	·	-19	-21	·	-7	·
(36) COc1cccc(NC(=O)C/C(C)=N/NC(=O)C2CCCCC2)c1
    -6	5	-0.8	0.5	i	6	-21	-1	·	-0.3
(37) Cn1c(SCc2nnc3n2CCCCC3)nc2ccccc21
    -3	·	5.3	·	·	-25	19	·	-10	·
(38) O=c1nc(-c2ccccc2)nc(-c2ccccc2)[nH]1
    3	·	-6.0	-0.6	i	16	-6	·	-10	·
(39) O=C(CCSCc1cccc(F)c1)NCCc1ccccc1
    0	0	5.7	-1.4	i	-1	6	-36	-1	-11
(40) Cc1ccc(Nc2nc(C(=O)NCc3ccco3)cs2)cc1
    6	·	-5.4	·	·	1	35	·	17	·

The line under a structure holds: Beta cell apopt	rRNA inh HTS	RanGTP-Impb inh	MLL AF4-AF9 inh	FGF22 binding	T cruzi repl	Calb FLC	rRNA inh HTS OD600	ALR H2O2 inh	rRNA inh HTS RFP
(41) CCCCC1CCC(c2nc(-c3cccnc3)no2)CC1 (stereo not given)
    1	·	3.5	·	·	-3	2	·	-3	·
(42) CC(C)(C)C(=O)Nc1cccc2[nH]ncc12
    1	16	-2.5	-1.2	i	-5	0	9	-75	-0.4
(43) COc1ccc(Nc2cc(C)nc3c(C)cccc23)cc1OC
    12	10	1.0	4.0	i	7	-17	12	-2	2.7
(44) C=C1CSc2nc(=O)c3c4c(sc3n21)CCC4
    ·	·	4.7	·	·	-7	9	·	3	·
(45) CCOc1ccccc1CN1CCN(C2CCC2)CC1CCO (stereo not given)
    ·	25	10	1.1	·	-3	-8	20	·	-2.4
(46) COc1ccc2nc(NC(=O)c3cccnc3SC)sc2c1
    9	-24	-2.5	-0.7	i	12	52	-21	4	-2.2
(47) COc1ccc(/C=N/NC(=O)CCc2nc3ccccc3[nH]2)cc1
    2	·	-2.0	·	·	-4	-1	·	-3	·
(48) CCN(CC)Cc1c(O)ccc2c(C)c(CC(=O)OC)c(=O)oc12
    -2	·	32*	·	·	3	3	·	-3	·
(49) COc1ccc(C(=O)NCC(=O)NCCc2c[nH]c3ccccc23)cc1OC
    -3	13	2.2	0.5	i	0	-1	8	6	5.0
(50) COc1ccc(Cl)cc1S(=O)(=O)N1CCN(Cc2ccc3c(c2)OCO3)CC1
    -15	·	·	·	·	15	27	·	-29	·

Single records, from the list above:
O=C(CCSCc1cccc(F)c1)NCCc1ccccc1 in the list: Beta cell apopt = 0; rRNA inh HTS = 0; RanGTP-Impb inh = 5.7; MLL AF4-AF9 inh = -1.4; FGF22 binding = i; T cruzi repl = -1; Calb FLC = 6; rRNA inh HTS OD600 = -36; ALR H2O2 inh = -1; rRNA inh HTS RFP = -11
O=c1c2ccccc2oc2nc3n(c(=O)c12)CCCS3 in the list: Beta cell apopt = -9; rRNA inh HTS = ·; RanGTP-Impb inh = 1.6; MLL AF4-AF9 inh = ·; FGF22 binding = ·; T cruzi repl = -15; Calb FLC = -23; rRNA inh HTS OD600 = ·; ALR H2O2 inh = -5; rRNA inh HTS RFP = ·

Continuation:
The line under a structure holds: Beta cell apopt	rRNA inh HTS	RanGTP-Impb inh	MLL AF4-AF9 inh	FGF22 binding	T cruzi repl	Calb FLC	rRNA inh HTS OD600	ALR H2O2 inh	rRNA inh HTS RFP
(51) CCOc1ccc(-c2nc(C#N)c(N3CCOCC3)o2)cc1
    ·	-10	3.3	5.2	i	6	9	-7	1	-2.9
(52) O=S(=O)(NC1CCCC1)c1ccccc1Cl
    -5	·	?	·	·	-2	-1	·	12	·
(53) Cc1c(N(C)S(=O)(=O)c2cc(C(=O)NCC3CCCO3)ccc2Cl)c(=O)n(-c2ccccc2)n1C (stereo not given)
    -4	0	-1.2	0.5	i	11	-4	1	-4	-2.8
(54) CC1(C)Cc2ccccc2C(NNC(=O)c2ccncc2)=N1
    0	·	7.4	·	·	-11	-15	·	-9	·
(55) COCC(=O)Nc1cc(C(=O)Nc2cccc(C)c2C)ccc1Cl
    0	5	5.5	-2.6	i	-10	-1	5	2	-2.8
(56) CCN(CC)CCNC(=O)c1ccccn1
    8	·	0.6	·	·	-6	2	·	17	·
(57) CCCCn1c(NCc2ccccc2NS(=O)(=O)c2ccc(C)cc2)nc2ccccc21
    -5	·	2.8	·	·	57*	27	·	1	·
(58) COc1cc(NS(=O)(=O)c2ccc(NC(=O)CCC(=O)O)cc2)nc(OC)n1
    -4	-4	3.7	-3.8	i	-5	0	5	-2	-0.1
(59) COc1ccc(C(=O)Nc2cc(OC)c(NC(=O)c3ccco3)cc2OC)cc1
    7	·	-3.1	·	·	-9	49	·	-37	·
(60) Cc1ccc(NC(=O)Cc2nc(COC(=O)c3c(F)cccc3Cl)cs2)cc1
    6	-4	·	1.4	i	·	·	-28	-3	-2.4
